PINK1 modulator: PINK1 expression modulation; PINK1 immunofluorescence, high-content cytometry, 24 h; 410,000 tested, 0.2% active; AID 624263; Potency, µM (top dose mostly 76.6 µM), inactives show top-dose activation (PINK1 increase), most hits filed as activators; active = well fitted activation curve with a large enough effect; inconclusive = small, poorly fitted or top-dose-only effect; inactive = flat fitted curve, though single readings scatter; cell line not stated here;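 note: potency is the fitted concentration of half-maximal effect; % of control where 0% means no effect; nearly all actives have a fitted effect of over 65% in size; a mitochondrial uncoupler was the plate control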
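Compound titrations (5 concentrations, 24 h) on a stable cell line; DMSO and CCCP controls. Endpoint: fixed-cell PINK1 immunofluorescence with mitochondrial, cell and nuclear markers, scanned by microplate cytometer.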
Sfp PPTase inh: blocks B. subtilis Sfp PPTase activity. Biochemical Sfp PPTase activity, qHTS. Potency, µM, inactives show max response, negative = inhibition, hits mostly inhibitors. 310,000 tested, 3.5% active; active = well fitted inhibition curve with a large enough effect; inconclusive = small, poorly fitted or top-dose-only effect, or another doubt; inactive = no such curve, though single readings can be large or run the other way;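 note: the enzyme is Sfp with the accession as filed and its product quenches rhodamine fluorescence; potency is the fitted concentration of half-maximal effect; 0% = enzyme reaction without inhibitor and -100% = no enzyme wells; top concentration of the series not given in the record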
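Reaction rates are the 30-min fluorescence difference (ex 525, em 598 nm) in wells containing 15 nM Sfp, 5 uM rhodamine-CoA and 12.5 uM BHQ-2-YbbR at pH 7.6 with 10 mM MgCl2.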
TRPML1 ag: agonists of human TRPML1 channel; Q9GZU1; TRPML1-expressing cells, Ca2+ dye fluorescence, FDSS; host cell line not named in the record; reference of the full effect not given here; activation, % (no concentration beside the values); 410,000 tested, 0.12% active; AID 624414; in the data active = activation above about 50%; inconclusive = about 30% to 50%; inactive = below about 30%; note: 0% is about no effect; the text of the record puts the active cut at 80%
Target sequence (Q9GZU1 whole entry, looked up): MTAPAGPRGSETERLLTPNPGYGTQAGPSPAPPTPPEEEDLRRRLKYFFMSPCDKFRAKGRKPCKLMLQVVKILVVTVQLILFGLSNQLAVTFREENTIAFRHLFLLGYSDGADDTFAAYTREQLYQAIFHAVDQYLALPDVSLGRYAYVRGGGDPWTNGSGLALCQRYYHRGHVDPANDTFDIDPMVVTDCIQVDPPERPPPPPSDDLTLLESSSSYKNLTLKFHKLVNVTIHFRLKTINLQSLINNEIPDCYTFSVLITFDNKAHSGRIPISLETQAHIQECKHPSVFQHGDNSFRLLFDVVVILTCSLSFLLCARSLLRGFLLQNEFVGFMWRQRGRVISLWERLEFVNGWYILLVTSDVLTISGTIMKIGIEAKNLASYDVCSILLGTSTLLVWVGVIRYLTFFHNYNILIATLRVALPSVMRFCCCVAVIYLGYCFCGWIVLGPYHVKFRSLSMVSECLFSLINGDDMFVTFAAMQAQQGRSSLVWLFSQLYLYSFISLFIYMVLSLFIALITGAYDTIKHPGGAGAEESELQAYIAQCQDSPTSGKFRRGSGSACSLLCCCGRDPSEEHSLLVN
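Tet-induced TRPML1-DL cells, 1,500 per well, cultured overnight, were loaded with a no-wash Ca2+ dye for 45–90 min. Calcium fluorescence was recorded on the FDSS for 110 s after compound addition, before the EC80 agonist (4 uM 54-4) was added.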
TRPV1 potentiator: enhances activation of the human vanilloid receptor TRPV1; Q8NER1; TRPV1-expressing cells, Fluo-8 calcium influx, capsaicin EC20 potentiation; host cell line not named in the record; control for the full effect not named in the record; potentiation, % at 8.33 µM; 320,000 tested, 0.02% active; AID 540277; active means potentiation above 80%; inconclusive means 30% to 80%; inactive means below 30%; note: 0% is about no effect
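Fluo-8 calcium influx in TRPV1-expressing cells, kinetic read (ex 480/em 520 nm). Compound added and read 3 min for agonist activity, followed by capsaicin at EC20 final and 2 min further read for enhancement.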
ClpP mod: qHTS Assay for Activators of ClpP; AID 651965, 2013; purified B. subtilis ClpP, FRET peptide cleavage, 20 min; ATP-dependent Clp protease proteolytic subunit (Bacillus subtilis (strain 168)), P80244; 340,000 tested, 1.9% active; Potency, µM (doses to about 57.5 µM), without a hit: at the highest dose activity change, negative = active; active = well fitted falling curve with a large enough effect; inconclusive = small, poorly fitted or top-dose-only effect; inactive = no such curve, though single readings can be large or run the other way; note: potency is the fitted concentration of half-maximal effect; the source files actives as falling curves though it sought activators and does not explain the sign; nearly all actives have a fitted effect of over 65% in size; many hits overshoot -100%
Target sequence (P80244 whole entry, looked up): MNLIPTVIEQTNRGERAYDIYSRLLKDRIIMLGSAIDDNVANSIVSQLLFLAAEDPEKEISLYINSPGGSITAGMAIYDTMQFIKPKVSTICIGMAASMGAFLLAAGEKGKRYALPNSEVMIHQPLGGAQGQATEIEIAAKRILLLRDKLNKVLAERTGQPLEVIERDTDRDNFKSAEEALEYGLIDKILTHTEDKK
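Purified B. subtilis ClpP, 10 microg/mL final in Tris/HCl pH8 with KCl, BSA, glycerol and Tween-20, cleaved an Abz/nitrotyrosine-quenched decapeptide. Fluorescence (ex 320, em 430) was read at 0 and 20 min at room temperature. Delta was normalized to 5.8 microM ADEP and DMSO/no-enzyme controls.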
TRPML1 blocker: human mucolipin-1 channel inhibition; Q9GZU1; activity change, negative = inhibition, % (concentration not given with the values); TRPML1-inducible cells, Ca2+ dye fluorescence, FDSS; active compounds read low; inhibition of EC80 agonist-evoked calcium signal; 390,000 tested, 0.02% active; in the data active means activity change below about -50%; inconclusive means about -30% to -50%; inactive means above about -30%;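 note: stimulus is agonist 54-4 at its EC80 concentration; % is set by controls: 0 for no effect and ±100 for the full control effect; the text of the record puts the active cut at -80%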
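Calcium fluorescence in TRPML1-DL cells induced overnight with Tet: a 110 s read after compound pin addition, then a 110 s antagonist read after challenge with 54-4 at 4 uM final (EC80).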
Menin-MLL FL inh: inhibitors of human menin-MLL interaction, wild-type MLL peptide; FP activity change, % at 61.4 µM; 290,000 tested, under 10 active; Fluorescence polarization, fluorescein-MLL peptide displacement from menin; inconclusive = falling polarisation curve, or a change in total fluorescence; inactive = total fluorescence flat and polarisation flat or rising; no compound was filed as active; the % refers to the polarisation; negative = inhibition;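 note: % of control where 0% means no effect; inhibitors lower the polarisation; unlabelled MLL peptide was the positive control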
An asterisk follows results filed as active; ? = inconclusive; . = not tested or not shown; [ ] = remark or other dose.

SMILES	PINK1 modulator	Sfp PPTase inh	TRPML1 ag	TRPV1 potentiator	ClpP mod	TRPML1 blocker	Menin-MLL FL inh
CCCc1nnc(NC(=O)CC(C)c2ccccc2)s1 (centres undefined)	2.9%	3%	0.1	?	0.0%	46	-2.5
Cc1ccc(N=N/C(=C\O)C(=O)c2ccc(Cl)cc2)cc1	-0.3%	10%	4.3	-2	.	67	-3.4
CC(C)c1cc(C(=O)OCC(=O)NC(=O)NCc2ccco2)c(O)c(C(C)C)c1	-3.5%	20%	1.1	-6	-2.3%	-11	2.2
O=C(c1ccc([N+](=O)[O-])o1)N1CCN(c2nc3ccc(F)cc3s2)CC1	0.1%	.	1.1	-31	.	1	.
Cc1ccc(S(=O)(=O)NCC(=O)OCC(=O)NC2CCCCC2)cc1	-0.9%	.	1.4	.	-1.1%	-17	.
COc1ccccc1C1/C(=C(/O)c2ccccc2)C(=O)C(=O)N1CC(C)C (centres undefined)	.	4%	1.4	5	0.8%	6	1.8
COc1ccc(CNC(=O)CCC(=O)c2ccc(C)cc2)cc1OC	4.0%	15%	-0.8	-24	-0.4%	-11	2.3
CCSc1nc(=S)n(Cc2ccccc2)c(C)c1C(C)=O	-0.8%	9%	2.9	5	-1.7%	14	-1.7
CSC[C@H](NC(=O)Cc1c(C)c2cc3c(C)c(C)oc3cc2oc1=O)C(=O)N[C@@H](Cc1ccccc1)C(=O)O	-0.1%	-6%	.	-5	?	.	-1.7
COc1cc(NC(=O)C2CCC(CNS(=O)(=O)c3csc(C(N)=O)c3)CC2)cc(OC)c1 (centres undefined)	3.6%	8%	-1.2	-2	-1.1%	25	-4.0
CC1(Oc2cccc(C#N)c2)CCN(Cc2ccc(-c3ccccn3)cc2)C1 (centres undefined)	0.5%	.	-0.9	.	0.4%	.	.
Cc1cc(NC(=O)CSc2nc(-c3ccccc3)cs2)no1	23%	6%	0.4	-10	1.4%	-3	-1.8
O=c1[nH]c(/C=C/c2cccnc2)c([N+](=O)[O-])c(=O)[nH]1	-0.3%	1%	-0.7	7	.	-1	-9.1
CCN(CC(=O)Nc1c(F)cccc1F)C(=O)CC1CCCCC1	0.4%	.	0.0	-9	0.7%	5	.
COc1ccc(C(=O)N(C)Cc2ccc(C)o2)cc1OC1CCN(C(C)=O)CC1	-0.2%	-27%	0.2	-35	-3.6%	-12	-8.4
COc1ccc(OC(C)C(=O)NCCc2nc3ccccc3[nH]2)cc1 (centres undefined)	-1.9%	12%	-0.6	-6	-2.0%	-15	1.5
Cc1ccc(CNC(=O)c2cc(S(=O)(=O)N3CCCCCC3)cn2C)cc1	1.1%	.	1.5	.	-0.2%	-10	.
C1CN(c2nc3nonc3nc2N2CCOCC2)CCO1	.	10%	.	2	.	.	0.6
O=S(=O)(NCCc1csc2nc(-c3ccccc3)nn12)c1ccc(Cl)s1	5.0%	.	3.7	.	0.9%	6	.
CN(C)c1c2ccccc2nc2c(F)c(F)c(F)c(F)c12	13%	11%	2.6	-11	4.8%	-7	-1.9
Cc1cccc(C)c1OC(=O)CN(c1ccc(Cl)cc1)S(C)(=O)=O	-1.3%	-2%	1.3	-14	1.7%	11	3.9
CCOc1ccc(NS(=O)(=O)c2cccc(C(=O)NCC3(N(C)C)CCCCC3)c2)cc1	0.9%	.	0.6	1	-21%	-7	.
COc1ccc(NC(=O)c2cn3c4c(ccc(Cl)c4c2=O)OC(C)C3)cc1OC (centres undefined)	-0.7%	.	1.2	.	-21%	3	.
CCC(CC)C(=O)Nc1c2c(nn1-c1ccc(F)cc1)CS(=O)(=O)C2	-0.4%	7%	0.3	7	.	-19	3.3
Fc1ccc(NCc2nnc3n2CCCCC3)cc1Cl	-5.0%	.	1.2	.	-1.6%	1	.

Only TRPV1 potentiator, for some of the entries so far:
molecule,TRPV1 potentiator
COc1ccccc1C1/C(=C(/O)c2ccccc2)C(=O)C(=O)N1CC(C)C (centres undefined),5
C1CN(c2nc3nonc3nc2N2CCOCC2)CCO1,2
CCSc1nc(=S)n(Cc2ccccc2)c(C)c1C(C)=O,5

New compounds follow.
SMILES	PINK1 modulator	Sfp PPTase inh	TRPML1 ag	TRPV1 potentiator	ClpP mod	TRPML1 blocker	Menin-MLL FL inh
COC(=O)c1cc(COC(=O)COc2ccc(C)c(C)c2)oc1C	2.3%	-11%	5.4	10	.	-17	-1.6
O=C(COC(=O)/C=C/c1cccc(Cl)c1)Nc1ccccc1-c1ccccc1	.	3%	.	-4	.	.	0.2
Cc1ccc(C)c(Cn2c(=O)n(-c3ccc(Cl)cc3)c(=O)c3c(C)c(C)sc32)c1	6.6%	.	-0.5	.	-0.5%	-5	.
Cc1cc(C(=O)NNC(=O)c2nn(C)c(=O)c3ccccc23)c(C)o1	2.7%	10%	-0.6	4	0.4%	-1	3.0
Cc1ccc(CS(=O)Cc2ccc(C(=O)N3CCN(c4cccc(C)c4C)CC3)o2)cc1 (centres undefined)	0.1%	.	1.4	.	-0.9%	16	.
COc1ccccc1NC(NC(=O)c1cccnc1)C(Cl)(Cl)Cl (centres undefined)	0.0%	14%	1.2	17	-0.5%	30	-0.7
CCOc1ccccc1NC(=O)CSc1cc(=O)n(CC)c2ccccc12	0.1%	.	3.4	.	-23%	2	.
O=c1oc2c3c(ccc2c2ccccc12)OCN(Cc1ccccc1Cl)C3	0.1%	.	1.4	.	-9.3%	-9	.
O=C(CS(=O)(=O)c1ccccc1)NCc1ccccc1	0.2%	15%	0.5	0	0.7%	8	-5.1
CC(=O)Nc1cc2nc(C)n(Cc3ccc([N+](=O)[O-])cc3)c2nc1C	0.1%	3%	-0.1	-16	-0.5%	-13	-0.2
CCCn1cc(CN2CCCC(C(=O)c3ccc4c(c3)OCO4)C2)c(C)n1 (centres undefined)	-0.4%	16%	-1.0	23	-16%	-2	-2.1
COc1ccc(-c2cc(C(=O)Nc3cc(OC)c(OC)c(OC)c3)no2)cc1OC	-1.1%[38.3 µM]	13%	0.9	17	-1.0%	12	4.5
O=C(CSc1nnc(-c2ccccc2NC(=O)c2ccccc2)o1)OC1CCCCC1	-3.9%	.	0.2	.	-3.2%	-10	.
CCOC(=O)c1cnn(-c2ccc(C)cc2)c1N	1.6%	14%	0.3	3	-2.0%	26	-1.1
CCCn1c(N)c(C(=O)CSc2nnc(C)n2Cc2ccccc2)c(=O)n(C)c1=O	1.7%	17%	-0.8	2	1.9%	55	0.0
Cc1ccc([C@H]2C[C@@H](O)[C@H](n3cc(COC(=O)c4ccccc4)nn3)CN2CC2CCCCC2)cc1	-1.6%	.	0.2	.	-1.3%	13	.
Cc1cc(F)ccc1S(=O)(=O)N1CCC2(CC1)OCCN2S(=O)(=O)c1cccs1	-1.4%	.	0.7	2	.	78	.
O=C(OCC(=O)N1CCOCC1)c1cccc(F)c1	0.4%	17%	-0.1	5	.	-5	-9.0
COC(CNC(=O)c1ccc2c(c1)nc(C)n2-c1cccc(F)c1)OC	2.8%[38.3 µM]	-9%	-0.1	-16	-0.5%	0	0.9
O=C(O)/C=C/C(=O)NCCC1=CCCCC1	0.1%	16%	0.5	-1	-0.3%	-5	-0.8
CCc1nn(CC(=O)NCCCN(C)C2CCCCC2)c(=O)c2cc3occc3n12	0.8%	16%	-1.5	1	-1.9%	14	.
O=C(CNC(=O)c1ccco1)N/N=C/c1cccs1	1.2%	18%	-0.6	0	0.2%	55	-0.3
O=C(Nc1ccc(Br)cc1)c1cccc(OC(=S)N2CCOCC2)c1	2.2%	8%	0.0	-12	.	8	1.3
COC(=O)Cn1c(=NC(=O)c2sc3ccccc3c2Cl)sc2cc(S(N)(=O)=O)ccc21	-1.2%	-11%	-0.4	1	14µM*	25	8.8
CC(=O)c1c(O)ccc2c(-c3ccccc3)cc(=O)oc12	1.4%	21%	0.2	-19	-16%	21	1.1
SMILES	PINK1 modulator	Sfp PPTase inh	TRPML1 ag	TRPV1 potentiator	ClpP mod	TRPML1 blocker	Menin-MLL FL inh
Cc1ccc(NC(=O)CCC(=O)NNC(=O)c2ccccc2[N+](=O)[O-])c(C)c1	1.1%	11%	0.4	3	.	17	-0.6
COc1ccc(CCNC(=O)CCCCn2c(=O)c3ccccc3n(Cc3ccccc3)c2=O)cc1OC	1.2%	.	0.5	.	-3.7%	24	.
CCC(C)c1ccc(NC(=S)N2CCN(c3ccccn3)CC2)cc1 (centres undefined)	-0.7%	6%	1.1	-39	-5.9%	3	-1.3
COc1cccc(C(=O)Nc2nc3ccccc3[nH]2)c1	8.1%	4%	-0.6	-19	0.0%	1	1.8
CCN1CCCC1CNC(=O)CSCc1nc(-c2ccccc2C)oc1C (centres undefined)	.	10%	0.0	-1	?	1	0.3
O=C(NCc1ccccc1)Nc1nnc([C@@H]2C[C@H](O)[C@@H](CO)O2)s1	-0.5%	.	-0.1	.	-2.2%	.	.
Cc1cccc(CN2CCC(CNC(=O)C3CCCN(S(=O)(=O)c4cnc[nH]4)C3)CC2)c1 (centres undefined)	0.7%	18%	-0.7	0	0.2%	-7	-0.5
CCOc1cc2[nH]c(=S)n(CCOC)c(=O)c2cc1OCC	2.4%	-2%	1.1	-4	-2.8%	6	5.0
O=c1cc(Br)c(O)c(Br)cc1Br	1.7%	.	0.7	.	.	47	.
COc1ccc(-c2noc(CCC(=O)NC3CCCCC3)n2)cc1OC	-1.5%	?	-0.2	24	-4.7%	-2	-1.3
COc1ccccc1NC(=O)CSc1ncn(-c2ccccc2)n1	0.2%	8%	0.0	-9	2.4%	-6	-1.0
COc1ccc(NC(=S)NC(=NS(=O)(=O)c2ccc(Cl)cc2)c2ccccc2)cc1	2.3%	.	0.4	.	.	-16	.
COc1ccc(/C=C/C(=O)c2ccc3ccccc3c2O)cc1CN1CCOCC1	8.8%	?	-0.7	-9	1.3%	-1	10
Nc1ccc(CNc2ncn[nH]2)cc1	2.4%	10%	.	-6	0.1%	.	0.6
CCNC(=O)c1cnn(-c2ccccc2)c1-c1ccccc1	0.2%	3%	2.0	-25	0.3%	2	-8.3
O=C1COc2ccc(C(=O)c3ccccc3C(=O)O)cc2N1	-0.5%	28%	0.2	21	1.6%	18	-2.0
CCCOc1ccc(C(=O)OCCN2CCCCC2)c(O)c1	2.8%	.	0.7	.	.	-1	.
CCCOc1ccc(-c2nc3c(c(=O)[nH]c(=O)n3Cc3ccccc3)n2CCO)cc1OCC	15%	1%	4.2	-4	.	6	5.4

Source: PubChem BioAssay
